Screening results (PubChem)
VDR inhibitor: vitamin D3 receptor (human) inhibition. Potency, µM, for inactives: max response, negative = inhibition, hits mostly inhibitors. VDR-SRC2-3 peptide fluorescence polarization, 2 h. P11473. hit rate 0.93% among 400,000; active = well fitted inhibition curve with a large enough effect; inconclusive = small, poorly fitted or top-dose-only effect, or another doubt; inactive = no such curve, though single readings can be large or run the other way; note: series mostly up to about 120 µM
Target sequence (P11473 whole entry, looked up): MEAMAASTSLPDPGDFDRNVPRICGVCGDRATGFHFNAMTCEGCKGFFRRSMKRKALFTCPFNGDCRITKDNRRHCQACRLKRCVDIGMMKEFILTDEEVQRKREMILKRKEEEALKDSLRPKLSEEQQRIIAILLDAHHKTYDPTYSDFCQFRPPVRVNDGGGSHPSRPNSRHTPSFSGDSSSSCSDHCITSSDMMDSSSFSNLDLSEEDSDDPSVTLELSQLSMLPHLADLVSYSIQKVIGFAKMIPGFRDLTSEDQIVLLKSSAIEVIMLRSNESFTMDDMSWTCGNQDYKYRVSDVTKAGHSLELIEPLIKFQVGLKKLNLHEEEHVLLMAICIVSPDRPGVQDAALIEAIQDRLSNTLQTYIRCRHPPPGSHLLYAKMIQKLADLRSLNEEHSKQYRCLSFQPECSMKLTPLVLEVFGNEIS
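Compounds are added to VDR with labelled SRC2-3 coactivator peptide and held 2 h at room temperature. Inhibition of the VDR–peptide interaction is then read as a change in fluorescence polarization.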
* marks the source's active call; other numbers are inactive results; ? = inconclusive; & = joins results of further samples; [ ] = remark or other dose. % is set by controls: 0 for no effect and ±100 for the full control effect; potency is the fitted concentration of half-maximal effect. Some of the compounds tested, so the mix of outcomes need not match the whole.

SMILES	VDR inhibitor
Cc1ccc2c(c1)-c1ncc(C(=O)c3ccccc3O)cc1CO2	-10.6%
COc1ccccc1NC(=O)Nc1nc(CC(=O)N2CCN(c3ccccc3)CC2)cs1	13.2%
COc1ccc(-c2cc(C(=O)NC(C(=O)O)C(C)C)c(C)o2)cc1OC (centres undefined)	-0.9%
Cc1ccc(-c2cc(C(=O)OCC(=O)Nc3cc(C)on3)c3ccccc3n2)c(C)c1	19.9%
COc1cc(CNCc2ccc(SC)cc2)cc(OC)c1	-12.4%
Cc1cc(/C=C2\SC(=S)NC2=O)c(C)n1-c1cccc(O)c1	-20.1%
O=C(CCl)Nc1cccc(CP(=O)(c2ccccc2)c2ccccc2)c1	4.1%
CC1(C)CC(=O)C(C(=O)c2ccccc2)C(=O)C1	-3.8%
COc1ccc(CCn2c3c(c(=O)[nH]c2=S)CN(CC(C)C)CN3)cc1OC	-0.1%
CC1CN(C(=O)CCNC(=O)c2ccccc2Cl)CC(C)O1 (centres undefined)	13.2%
CCN(CC)S(=O)(=O)c1ccc(NC(=O)CSc2cccc[n+]2[O-])cc1	1.3%
CSC(=S)N/N=C/c1ccccc1	-17.7%
CC1(c2ccc(OC(F)F)cc2)NC(=O)N(CC(=O)Nc2cccc(S(N)(=O)=O)c2)C1=O (centres undefined)	-18.8%
COCCn1c(SCC(=O)N2CCCCC2)nc2c(c1=O)SC(C)C2 (centres undefined)	-2.6%
COc1ccc(-c2[nH]ncc2CN2CCC(N3CCSCC3)CC2)cc1F	-10.9%
Cc1cccc(C(=O)Nc2ccccc2OCc2cc(=O)n3cc(C)ccc3n2)c1	9.8%
Cc1cc(NC(=S)NC(=O)c2ccccc2)ccc1-c1cc2ccccc2oc1=O	-12.6%
Cc1ccc2c(c1)C=CC(C)(C)S2(=O)=O	-4.5%
COc1cccc(C2/C(=C(/O)c3ccccc3)C(=O)C(=O)N2Cc2ccco2)c1 (centres undefined)	-3.9%
COc1ccc(C2CC(c3ccccc3)=NN2c2ccc(/C=N/NC(=O)c3ccncc3)cc2)cc1 (centres undefined)	3.1%
CCCN(CCC)C(=O)CC(c1ccccc1)c1cc(C)ccc1O (centres undefined)	-4.9%
CCOC(=O)c1ccc2[nH]c(C)c(CCC(C)=O)c(=O)c2c1	-9.2%
O=S(=O)(c1ccc2c(c1)OCCO2)N1CCC(n2nnc3cc(F)ccc32)CC1	6.9%
COc1ccccc1NCC(=O)Nc1cc(S(=O)(=O)N2CCOCC2)ccc1N1CCOCC1	-3.8%
COc1ccc(CONS(=O)(=O)c2ccc(NC(C)=O)cc2)cc1Cl	7.4%
COc1ccc2c(c1)S(=O)(=O)c1ccccc1N2	-28.8%
O=C1NC(=S)S/C1=C\c1coc2ccccc2c1=O	1.9%
CCN(CC)c1ccc(NC(=O)COC(=O)CCC(=O)c2ccc(F)cc2)cc1	12.5%
O=C(NC1=NCCS1)C12CC3CC(C1)CC(C(=O)NC1=NCCS1)(C3)C2	-6.4%
CN(C)S(=O)(=O)c1cccc(NC(=O)c2cc3ccccc3o2)c1	19.7%
CCOc1ccc(N(C(=O)c2ccc(C)cc2)S(=O)(=O)c2ccc3c(c2)n(C)c(=O)n3C)cc1	-4.7%
Cc1ccc(C(=O)NCC(=O)N2CCC(Cc3ccccc3)CC2)cc1	-12.4%
CCCn1nnnc1NCc1ccc(SC)cc1	90.1%[activator]
COc1cccc(CN=c2c([N+](=O)[O-])nn(-c3ccccc3C)n2O)c1	-13.7%
Cc1ccc(-c2noc(CSc3nc(N)cc(N)n3)n2)cc1	3.7%
CCCCOCCCNC(=O)c1ccc([N+](=O)[O-])c(C)c1	-5.9%
CCc1ccc(NC(=O)CC2C(=O)NCCN2C(=S)Nc2ccccc2)cc1 (centres undefined)	-16.9%
CCC1(c2ccc(F)cc2)NC(=O)N(CC(=O)NCc2ccccc2Cl)C1=O (centres undefined)	-19.2%
O=C(O)c1ccccc1NS(=O)(=O)c1cccc2cccnc12	-0.1%
CCOC(=O)CSc1nc(=O)n2cc(C)ccc2n1	0.6%

Single values from the results shown.
COc1cccc(CN=c2c([N+](=O)[O-])nn(-c3ccccc3C)n2O)c1 in VDR inhibitor = -13.7%
COc1ccc(CONS(=O)(=O)c2ccc(NC(C)=O)cc2)cc1Cl in VDR inhibitor = 7.4%

The list goes on.
SMILES	VDR inhibitor
COc1ccc(N2CCN(C(=O)c3ccccc3)CC2)c([N+](=O)[O-])c1	-14.4%
O=C(NCc1ccc2c(c1)OCO2)c1cccnc1	15.8%
CN(CCOc1ccccc1)CC(=O)Nc1cccc(Br)c1	-3.6%
CCOc1ccc(C2C(C(C)=O)=C(O)C(=O)N2CCc2c[nH]c3ccccc23)cc1 (centres undefined)	3.3%
CSc1nnc(NC(=O)c2ccc3c(c2)OCO3)s1	?
CC1=NN(c2nc(C)cc(C)n2)C(=O)C1CCC(C)C (centres undefined)	-16.3%
O=C(Nc1ccc(C(=O)N2CCN(c3cccc(Cl)c3)CC2)cc1)c1nsc2ccccc12	-5.0%
COc1cc2[nH]c(=S)n(C3CC3)c(=O)c2cc1OC	-11.8%
Cc1cccc(CSc2nc3cccnc3n2Cc2ccc(C(=O)NCc3cccs3)cc2)c1	1.3%
C=C(NC(=O)C(=C)NC(=O)c1csc(C2=NC3c4csc(n4)C4NC(=O)c5csc(n5)C(C(C)(O)C(C)O)NC(=O)C5CSC(=N5)C(=CC)NC(=O)C(C(C)O)NC(=O)c5csc(n5)C3(CC2)NC(=O)C(C)NC(=O)C(=C)NC(=O)C(C)NC(=O)C(C(C)CC)NC2C=Cc3c(C(C)O)cc(nc3C2O)C(=O)OC4C)n1)C(N)=O (centres undefined)	-4.2%
O=C(NC1CCCC1)C1CCN(S(=O)(=O)c2cccc3cccnc23)CC1	-9.8%
CCN(CC)CCCN1C(=O)C2C(C(=O)Nc3ccc(C(C)C)cc3)C3C=CC2(O3)C1C(=O)NC1CCCCC1 (centres undefined)	-1.3%
CC12CCC(C(=O)NCc3ccccc3Cl)(CC1=O)C2(C)C (centres undefined)	2.6%
CCOc1ccc(NC(=O)C/C(C)=N/NC(=O)Cc2cccs2)cc1	8.1%
COc1ccc(-c2noc(CCC(=O)NCCN(C)Cc3ccccc3)n2)cc1	3.1%
CC(=O)N1c2ccc(S(=O)(=O)N3CCC(C(=O)Nc4cccc(F)c4)CC3)cc2CC1C (centres undefined)	-20.3%
COc1ccc(Cn2c(=O)c3cccnc3n(Cc3ccc([N+](=O)[O-])cc3)c2=O)cc1	0.2%
CSc1cccc(NS(=O)(=O)c2cn(C)cn2)c1	-7.6%
Cc1onc(-c2ccccc2)c1C(=O)NNC(=S)NC(=O)c1ccc(F)cc1	-4.7%
N#CCNC1CC(=O)N(c2ccc(F)cc2)C1=O (centres undefined)	-18.8%

Looked up one by one from the entries so far, four records:
SMILES	VDR inhibitor
CCN(CC)c1ccc(NC(=O)COC(=O)CCC(=O)c2ccc(F)cc2)cc1	12.5%
CC1(c2ccc(OC(F)F)cc2)NC(=O)N(CC(=O)Nc2cccc(S(N)(=O)=O)c2)C1=O (centres undefined)	-18.8%
CC(=O)N1c2ccc(S(=O)(=O)N3CCC(C(=O)Nc4cccc(F)c4)CC3)cc2CC1C (centres undefined)	-20.3%
Cc1ccc(C(=O)NCC(=O)N2CCC(Cc3ccccc3)CC2)cc1	-12.4%

(list continues)
SMILES	VDR inhibitor
Clc1cccc(OCCCN2CCCC2)c1Cl	4.7%
CN(CC(=O)Nc1ccc(Cl)c(C(F)(F)F)c1)C(=O)Cc1ccsc1	13.5%
NC(=O)c1cccc2c1-c1ccccc1/C2=N/NC(N)=S	-4.2%
CCCCNC(=O)NNC(=O)c1ccco1	-22.4%
Cc1ccc(NC(=O)c2csnn2)c(C)c1	-8.3%
COc1ccccc1NC(=O)N(Cc1cccs1)Cc1cc2cc3c(cc2[nH]c1=O)OCO3	-16.7%
CCOC(=O)N1CCN(c2nc3ccccc3nc2C(C#N)S(=O)(=O)c2ccc(C)cc2)CC1 (centres undefined)	-11.2%
COc1ccc(/C=N/NC(=O)c2csc(-n3nc(C)cc3C(F)(F)F)n2)cc1	-6.2%
CCN(CC)CCC(c1ccc2c(c1)OCO2)c1c(OC)cc(OC)c2ccc(=O)oc12 (centres undefined)	-7.1%
CCOc1ccc(-n2c(SCC(=O)Nc3ccc4c(c3)OCCO4)nc3c([nH]c4ccccc43)c2=O)cc1	3.3%
COC(=O)CNC(=O)C(C)NC(=O)OCc1ccccc1 (centres undefined)	10.9%
CCOC(=O)N/N=C(\C)c1ccc(-n2cnnn2)cc1	-8.2%
COc1ccc(C)c2sc(N(CCN(C)C)C(=O)c3ccc4ccccc4c3)nc12	-19.0%
Cc1cs/c(=N\N=C2CCCCC2)n1Cc1ccco1	-23.7%
N/C(Cc1nc(-c2ccc(Cl)cc2)cs1)=N/O	-21.2%
COc1ccc(C(=O)O/N=C(\N)c2ccc(OC)c(OC)c2)c(OC)c1	-21.9%
CC(Sc1ncn[nH]1)C(=O)Nc1ccc(Cl)cn1 (centres undefined)	12.8%
CSc1ccccc1NC(=O)CN(C)C(=O)C1CC(=O)N(C(C)c2ccccc2)C1 (centres undefined)	-23.6%
CSc1ccccc1NC(=S)N/N=C/c1cccn1Cc1ccc(F)cc1	13.5%
CCCOC(=O)c1[nH]c2c(c1C)C(=O)CC(c1ccc(OC)c(OC)c1)C2 (centres undefined)	-13.0%
Cc1ccc(N2CC(C(=O)Nc3ccc(S(=O)(=O)N4CCOCC4)cc3)CC2=O)cc1Cl (centres undefined)	1.5%
CNC(=O)n1cc(C)c(-c2cccs2)n1	-12.9%
O=C(c1ccc(F)cc1)N(Cc1ccccc1)C1CCS(=O)(=O)C1 (centres undefined)	13.6%
COc1cc(OC)c(-c2nc(-c3ccncc3)no2)cc1OC	-1.0%
COc1ccc(NC(=O)c2cccs2)cc1NC(=O)c1ccco1	-8.4%
CCN(CC)CCn1c(=N)n(CC(O)COc2ccccc2C)c2ccccc21 (centres undefined)	-9.1%
N[C@@H](Cc1ccccc1)C(=O)N1CCC(C(=O)N[C@@H](Cc2c[nH]c3ccccc23)C(=O)O)CC1	?
Cc1noc(C)c1NC(=O)Nc1cccc2c1O[C@H](CN(C)C(=O)Nc1ccccc1)[C@@H](C)CN([C@H](C)CO)C2=O	11.9%
CCOC(=O)Cc1[nH]nc2c1C(c1ccoc1)C(C#N)=C(N)O2 (centres undefined)	8.7%
COC(=O)c1c(-c2cccs2)csc1NC(=O)c1ccc(C(C)C)cc1	?
Cc1ccc(SC[C@H](Cc2ccccc2)N2CC[C@@H](C)CCC2=O)cc1	-3.6%
Cc1cc(C(=O)OCC(=O)NC(C)C)c(C)o1	6.1%
Cc1cc(C)cc(Oc2ccc(N)cc2)c1	-4.5%
Cc1ccc(C)c(SCC(=O)c2ccc[nH]2)c1	6.0%
CC(=O)Oc1cccc(N2C(=O)c3ccc(C(=O)O)cc3C2=O)c1	0.2%
COc1ccc(-c2cc(C(=O)Oc3ccc(Cl)cc3)c3ccccc3n2)cc1	-6.0%
CCOC(=O)C1CCN(S(=O)(=O)c2cc(Cl)c(C)cc2OC)CC1	8.4%
O=[N+]([O-])c1cccc(CN2CCN(c3cccc4[nH]ccc34)CC2)c1	8.5%
COc1ccccc1C(=O)NC1CC(C)(C)NC(C)(C)C1	30.0%[activator]
O=C(Nc1nccs1)C1CC(=O)N(CCc2ccc(F)cc2)C1 (centres undefined)	-8.7%
COc1ccc(CCNC(=O)c2ccc3c(c2)c(C)c(C)n3Cc2ccc(F)cc2)c(OC)c1OC	12.6%
CCOC(=O)N1CCN(C(=O)CNC(=O)c2nn(-c3ccc(OC)cc3)c(=O)c3ccccc23)CC1	1.1%
Cc1cc(O)c(C(c2cccc(F)c2)N2CCN(c3ccccc3)CC2)c(=O)n1Cc1ccco1 (centres undefined)	-5.4%
Cc1cc(C)c(C#N)c(SCC(=O)Nc2cc(C)on2)n1	-19.3%
Cc1ccc(-n2c3nc(=O)n(C)c(=O)c-3cc3ccccc32)cc1	-16.9%
O=C(COC(=O)c1cc(=O)[nH]c2ccccc12)Nc1nc(-c2ccccc2)cs1	-9.1%
CCN1CCN(Cc2ccc(NC(=O)c3cc(NC(=O)c4cc(C)on4)cc(OC)c3)cc2C(F)(F)F)CC1	-15.5%
Cn1c(=O)c2cc(S(=O)(=O)Nc3cc(C(=O)O)cc(C(=O)O)c3)ccc2n(C)c1=O	5.8%
COC(=O)CNC(=O)C1(C)C=CCN1C(=O)c1ccccc1 (centres undefined)	?
N#CC(c1ccc(O)cc1)N1CCN(C(C#N)c2ccc(O)cc2)CC1 (centres undefined)	-1.9%
COc1ccc(CNC(=O)CCC(=O)Nc2nnc(C(F)(F)F)s2)cc1	-23.4%
COc1cc(-c2noc(C)c2C#Cc2ccsc2)cc(OC)c1OC	-10.7%
COc1ccc(CNC(=O)C(=O)NCC2OCCCN2S(=O)(=O)c2cccs2)cc1 (centres undefined)	-11.3%
Cc1nn(C)c(C)c1NS(=O)(=O)c1ccc(Cl)s1	-12.5%
Cc1cc(NC(=O)CSc2nc3ccsc3c(=O)n2Cc2ccccn2)n[nH]1	19.0%
CCN1C(=O)c2cccc3c(S(=O)(=O)Nc4ccc(OC)cc4OC)ccc1c23	0.7%
N#Cc1ccsc1NC(=O)CN1CCCCC1	-5.0%
Cc1nc([N+](=O)[O-])cn1-c1nc2ccccn2c1[N+](=O)[O-]	-15.7%
CCN(CC)CCN(Cc1cc2ccc(C)c(C)c2[nH]c1=O)C(=S)NCc1ccco1	-13.4%
COc1ccc(CCNCC(=O)Nc2ccc(C)c(S(=O)(=O)N(C)C)c2)cc1	-4.7%
N[C@@H](Cc1cc(I)c(Oc2cc(I)c(O)c(I)c2)c(I)c1)C(=O)O	-19.8%&-18.5%

Ordered by SMILES length (smallest number first): some entries from above.
SMILES	VDR inhibitor
COc1ccc2c(c1)S(=O)(=O)c1ccccc1N2	-28.8%
COC(=O)CNC(=O)C1(C)C=CCN1C(=O)c1ccccc1 (centres undefined)	?
COc1cc(-c2noc(C)c2C#Cc2ccsc2)cc(OC)c1OC	-10.7%
CCOC(=O)C1CCN(S(=O)(=O)c2cc(Cl)c(C)cc2OC)CC1	8.4%
O=C(Nc1ccc(C(=O)N2CCN(c3cccc(Cl)c3)CC2)cc1)c1nsc2ccccc12	-5.0%
